High-throughput results deposited in PubChem BioAssay by several laboratories.
Rce1 inh – inhibitors of yeast Ras-converting enzyme; actives 0.27% (n = 290,000); Q03530; calls only; AID 2563; yeast membranes, quenched prenylated peptide cleavage fluorescence;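 active = fall in fluorescence gain of 50% or more versus controls, with final raw signal at or below 3038400; inconclusive = same 50% fall but final raw signal above 3038400; inactive = fall in fluorescence gain under 50%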;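 also: plate controls were neutral control wells for no effect and wells lacking membranes for full effect; tested at 10 µM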
UUG fidelity – yeast start codon fidelity modulation | actives 0.13% (n = 350,000) | S. cerevisiae UUG-firefly luciferase reporter, luminescence/redox ratio | activity score, % at 18.7 µM | AID 602363;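 active = replicate mean at a twofold rise or more, about +100% in these data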;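 also: firefly luciferase made from a UUG start codon reports start codon fidelity; reporter light over untreated wells divided by growth signal over untreated wells; some hits fall short of that in this replicate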
MT1-MMP act inh – MT1-MMP (human) activation inhibition; P50281; HT1080 RFP-PRO-GFP cells, GFP/RFP ratio fluorescence, overnight; percent of plate control window, DMSO zero; actives 0.061% (n = 360,000); AID 651647; GFP/RFP ratio change, % at 20 µM;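 active = GFP/RFP ratio change of at least 30% with cell ATP level not reduced by more than half and red fluorescence within 50% of control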; also: strong numbers were not always called active
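Material: RFP-PRO-GFP reporter HT1080 cells. Dosing: single-point 20 µM compound, 1% DMSO. Controls: DMSO and RFP-L50D-GFP cell wells. Timing: cells overnight before dosing, compound overnight, 37 °C, 5% CO2. Measure: GFP/RFP fluorescence ratio.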
PABP FP inh – blocks human PABP binding to poly(A) RNA | AID 2014 | inhibition, % at 35 µM | P11940 | actives 1% (n = 290,000) | fluorescence polarization;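 active = 50% or more with normal probe brightness, or confirmed in later tests; inconclusive = above 50% with abnormal brightness, or retests that disagree; inactive = below 50% or failed in later tests; about a fifth of its hits are not listed in these tables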;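 also: calls also rest on retests at 20 µM and on dose response follow-up; controls were probe without protein and protein plus probe with vehicle; some compounds called inactive have numbers as strong as hits; many hits fall short of the cut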
Target sequence (P11940 whole entry, looked up): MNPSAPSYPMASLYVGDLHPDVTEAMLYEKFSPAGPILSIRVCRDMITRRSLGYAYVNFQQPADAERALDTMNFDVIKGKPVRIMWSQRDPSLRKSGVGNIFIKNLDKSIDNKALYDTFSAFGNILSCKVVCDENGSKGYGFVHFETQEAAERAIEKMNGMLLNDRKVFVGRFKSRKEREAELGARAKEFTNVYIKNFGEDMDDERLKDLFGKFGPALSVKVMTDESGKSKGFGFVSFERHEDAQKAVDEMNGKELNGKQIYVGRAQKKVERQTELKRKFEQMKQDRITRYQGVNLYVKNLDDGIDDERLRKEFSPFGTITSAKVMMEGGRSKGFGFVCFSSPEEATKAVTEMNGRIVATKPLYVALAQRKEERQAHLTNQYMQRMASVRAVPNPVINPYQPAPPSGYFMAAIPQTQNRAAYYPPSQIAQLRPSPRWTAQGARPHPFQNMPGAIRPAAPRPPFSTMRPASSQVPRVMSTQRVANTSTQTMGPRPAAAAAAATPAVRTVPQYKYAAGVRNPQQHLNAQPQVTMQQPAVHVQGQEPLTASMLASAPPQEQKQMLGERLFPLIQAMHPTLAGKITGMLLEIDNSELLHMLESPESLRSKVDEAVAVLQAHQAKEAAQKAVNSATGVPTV
CSC inhib – cancer stem cell inhibition; cancer stem cell-like cells viability, luminescence; inhibition, % at 7.5 µM; actives 1.1% (n = 300,000);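 active = mean at 75% or more and at least half the replicates too; inconclusive = mean and replicates disagree; tested in HMLE shEcad cells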;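 also: 0% = median of negative and 100% = median of positive control wells; the first replicate is given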
eIF4H inh – inhibitors of RNA binding by human eIF4H; Q15056; eIF4H fluorescence polarization binding assay; inhibition, % at 35 µM; actives 0.94% (n = 290,000); AID 2012;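 active = 50% or more with normal probe brightness, or confirmed in later tests; inconclusive = above 50% with abnormal brightness, or retests that disagree; inactive = below 50% or failed in later tests; about a fifth of its hits are not listed in these tables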;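 also: calls also rest on retests at 20 µM and on dose response follow-up; 0% = protein and probe with vehicle and 100% = probe without protein; strong numbers were not always called active; many hits fall short of the cut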
Env fusion inh – inhibitors of HIV Env-mediated cell fusion; actives 1.1% (n = 360,000); HeLa-JRFL Env/CEM21 cell fusion, luciferase; AID 651610; inhibition, % at 12.3 µM;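 active = mean replicate inhibition score of at least 50 and every replicate individually at or above 50; inconclusive = only one of the two criteria met; inactive = mean below 50 and not all replicates reaching 50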;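 also: 0% = plate neutral controls and 100% = maraviroc near 300 nM; one replicate is shown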
eIF4H inh retest – also measured in eIF4H inh; calls as there; inhibition, %; compound at 20 µM; confirmation average;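 mean of two retest wells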
PABP FP inh retest – further read-out of PABP FP inh, marked with its call; inhibition, %; compound at 20 µM; confirmation repeats;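 mean of two retest wells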
MT1-MMP act inh RFP – recorded beside MT1-MMP act inh, whose call it bears; RFP signal change, %; measured here: RFP expression control read;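 0 = vehicle wells; hits needed this value within 50% of zero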
* = called active by the depositor; i = inactive; ? = inconclusive; . = no result given; & = joins results of further samples. Only part of the results is shown, so the mix of outcomes need not match the whole.

SMILES	Rce1 inh	UUG fidelity	MT1-MMP act inh	MT1-MMP act inh RFP	PABP FP inh	CSC inhib	eIF4H inh	Env fusion inh	others
COc1ccc(C(=O)c2ccc3oc(-c4ccc(OC)cc4)c(C#CCCO)c3c2)cc1	i	-15	4	-1	.	0	.	11
Cc1c(-c2nc3ccccc3[nH]2)cnn1C	.	-22	3	0	.	2	.	.
C[C@H](CO)N1C[C@H](C)[C@@H](CN(C)C(=O)c2cccnc2)Oc2ncc(Br)cc2C1=O	.	-18&-11&-7	4	5	.	.	.	18
NS(=O)(=O)c1ccc2nc(NC(=O)Nc3ccc(F)cc3)sc2c1	i	-14	-6	3	-3	5	0	-11
Cc1noc(C)c1C(=O)N1CCC1(C)C(=O)NS(=O)(=O)c1ccccc1Cl (configuration not stated)	.	-11	1	6	.	.	.	10
COc1ccc(S(=O)(=O)N2CCN(C(=O)c3cccs3)CC2)cc1OC	i	.	-14	-20	-4	4	-9	.
CC(C)Sc1ccc([N+](=O)[O-])cc1C(=O)Nc1ccncc1	i	.	-1	0	-6	0	4	5
CC(C)(C)c1ccc(OCCNC(=O)c2ncn[nH]2)cc1	i	-25	36*	-1.1*	0	32	-2	-19
COc1ccc(C(C)C)cc1S(=O)(=O)N1CCC(C(=O)N2CCN(C)CC2)CC1	i	-10	1	1	-2	1	8	.
O=c1c2nnn(Cc3ccccc3)c2ncn1C/C=C/c1ccccc1	i	-7	1	2	-3	-6	-2	6
O=C(C1CCN(S(=O)(=O)c2ccccc2)CC1)N1CCN(c2ccccc2)CC1	i	11	0	-1	0	-8	2	61*
COc1ccc(C2c3c(-c4ccccc4O)n[nH]c3C(=O)N2Cc2ccco2)cc1 (configuration not stated)	i	-12	0	-12	-7	12	-8	-120
Cc1ccccc1N1C(=O)c2cccc3cccc(c23)C1=O	i	-30	-5	-5	-4	-8	-9	-14
COCCNC(=S)N/N=C(\C)c1ccccc1OC	i	-19	-4	1	18	-25	4	-5
CCCOc1ccc(F)cc1-c1cc(C(=O)NCc2cccs2)[nH]n1	.	-21	-3	-7	.	.	.	4
Cn1c(=O)[nH]c(=O)c2c1nc(N1CCOCC1)n2CC(O)COc1ccc2ccccc2c1 (configuration not stated)	i	21	4	-2	14	7	-10	.
c1nnnn1C12CC3CC(CC(C3)C1)C2	i	.	6	13	5	-7	-5	.
O=C(NCc1ccccn1)c1ccc2c(c1)N(Cc1ccccc1)CCS2	i	-7	-4	2	9	59	14	-215
O=C(CCc1nnc(Cc2ccc3c(c2)OCO3)o1)NCCc1ccccc1Cl	i	-16	-3	2	-4	-5	-8	3
COc1ccc(OC(=O)COc2ccccc2C)cc1	i	-23	-2	5	.	9	.	15
O=C(Nc1nc(-c2ccc3c(c2)OCCO3)cs1)c1ccc(Br)o1	.	2	-3	1	.	.	.	7
CCOc1ccccc1NC(=O)Nc1cccc(C(C)=O)c1	i	-11	2	-5	9	-4	-4	-65
Cc1c(Cl)cnc(NC(=O)COC(=O)[C@@H](NC(=O)c2ccco2)C(C)C)c1Cl	.	-8	-14	1	.	-10	.	.
O=C(/C=C/c1ccccc1[N+](=O)[O-])OCC(=O)N1CCN(c2ccccc2)CC1	.	7	2	4	.	.	.	12
CCCCn1c(=O)[nH]c(=O)c2c1nc(-c1ccc(CC)c([N+](=O)[O-])c1)n2C	i	.	.	.	-14	-14	-14	.
COCCOC(=O)c1c(N)n(CCCN2CCOCC2)c2nc3ccccc3nc12	i	.	-2	4	10	-24	2	10
CCCCN(C(=O)CC1CCCC1)c1c(N)n(CC(C)C)c(=O)[nH]c1=O	i	-17	1	3	.	-4	.	7
COc1cc(/C=C2\CCn3c2nc2cc(C(=O)O)ccc2c3=O)ccc1OC(F)F	i	5	10	1	19	-16	-2	9
COc1cccc(C(NC(C)=O)c2nc(-c3csc4ccccc34)cs2)c1 (configuration not stated)	.	-15	-10	-8	.	.	.	-3
C=CCC(=O)N1CCCC(CO)(Cc2ccc(F)cc2F)C1 (configuration not stated)	i	-10	-1	0	-1	-8	-19	-12
O=C(c1ccc(-c2ccccc2Cl)o1)N1CCN(c2ccccc2O)CC1	i	.	-3	3	.	33	.	14
CCN1/C(=C2/OC(=S)N(C)C2=O)Sc2ccccc21	.	0	8	4	-7	.	-6	6
Cc1cc2nc(-c3ccc(=O)[nH]c3)n(Cc3ccccc3)c2cc1C	i	9	13	8	-1	9	-2	-35
Cc1nc2ccc(C(=O)O)cc2c2c1CC(CN)O2 (configuration not stated)	i	-19	0	2	6	-5	11	10
Cc1ccnc2nc(C(=O)N3CCN(c4ccc(F)cc4)CC3)nn12	i	-8	1	-2	-2	-2	-4	.
O=C(Nc1nc2ccccc2[nH]1)C1CC(=O)N(c2ccc3c(c2)OCCO3)C1 (configuration not stated)	i	-24	-17	-4	20	7	9	.
COC(=O)C1CCN(C(=O)CN2C(=O)c3ccccc3S2(=O)=O)CC1	i	-9	6	-1	.	-7	.	-27
CN(C)c1ccc(C(=S)N2CCOCC2)cc1Br	i	-19	-2	5	4	-7	2	.
Cc1ccc(S(=O)(=O)c2nc(C)c3c(n2)CCC3)cc1	i	-15	0	4	51	-2	-2	.	eIF4H inh retest=4;PABP FP inh retest=3
CSc1c(-c2ccccc2)nc2ccc(Cl)cc2c1C(=O)O	i	-11	1	1	2	3	-5	-12
Cc1ccc(N(C)S(=O)(=O)c2ccc(-c3cc(C)no3)s2)cc1	i	-23	-9	-11	10	-20	-6	33
Cc1cc(C)cc(NS(=O)(=O)c2ccc(NC(=O)C3CCCCC3C(=O)O)cc2)c1 (configuration not stated)	i	.	6	-6	-6	5	1	30
Cc1ccc(C)c(N2CCN(C(=O)CCS(=O)(=O)c3ccc4c(c3)oc(=O)n4C)CC2)c1	i	6	1	-13	2	-5	-9	1
CCC(=O)NCCc1nc(-c2ccccc2)no1	i	-17	2	4	.	-18	.	60*
C#CCOc1c(Cl)cc(/C=C2/C(=O)ON=C2C)cc1OC	i	-15	9	4	12	-9	-7	-10

Looked up by structure from the entries so far:
SMILES	Rce1 inh	UUG fidelity	MT1-MMP act inh	MT1-MMP act inh RFP	PABP FP inh	CSC inhib	eIF4H inh	Env fusion inh	others
Cc1ccc(C)c(N2CCN(C(=O)CCS(=O)(=O)c3ccc4c(c3)oc(=O)n4C)CC2)c1	i	6	1	-13	2	-5	-9	1
Cc1ccc(S(=O)(=O)c2nc(C)c3c(n2)CCC3)cc1	i	-15	0	4	51	-2	-2	.	eIF4H inh retest=4;PABP FP inh retest=3
O=C(c1ccc(-c2ccccc2Cl)o1)N1CCN(c2ccccc2O)CC1	i	.	-3	3	.	33	.	14

Going on with the list.
SMILES	Rce1 inh	UUG fidelity	MT1-MMP act inh	MT1-MMP act inh RFP	PABP FP inh	CSC inhib	eIF4H inh	Env fusion inh	others
COc1ccc(OCC(=O)N/N=C/c2cccc3cccnc23)cc1	i	-8	-2	0	-2	13	5	4
Cc1ccc(Cl)cc1NC(=O)C1COc2ccccc2O1 (configuration not stated)	i	-17	0	-6	4	-4	10	4
Cc1snc2sc(C(=O)c3ccc(Br)cc3)c(N)c12	i	.	-16	1	-6	17	14	.
COC(=O)c1c[nH]c(=O)c2ccccc12	i	.	1	-2	0	.	-2	-13
COc1ccc(NC(=O)CN2CCN(CC(=O)Nc3ccccc3F)CC2)cc1OC	i	-9	10	13	-13	-10	-6	.
Cn1cnc(S(=O)(=O)N2CCN(c3ccc(F)cc3)CC2)c1	i	-6	-1	1	11	-4	-6	-13
O=C(NCc1ccc(-c2nc3ccccc3s2)cc1)c1ccc(Br)o1	i	.	1	2	2	-10	-4	-16
Cc1nc(-c2cccc(NC(=O)COc3ccc(Cl)cc3)c2)cs1	i	-14	-1	-5	-10	9	-6	-2
O=C(/C=C/c1cccc([N+](=O)[O-])c1)OCC(=O)c1ccccc1	i	.	4	3	-7	-5	-8	-16
O=C(N/N=C/c1cc2ccccc2nc1Cl)[C@H]1C[C@@H]1c1ccccc1	i	.	2	0	7	0	-16	.
CC(CCc1ccccc1)NC(=O)CCNS(=O)(=O)c1ccccc1 (configuration not stated)	i	7	0	0	.	-12	.	6
CCOC(=O)N1CCN(S(=O)(=O)c2ccc(OC)c(OC)c2)CC1	i	-6	5	2	-5	-11	-4	18
Cc1cc(C(=O)O)sc1C	i	-9	2	4	-2	-2	-7	1
COc1ccc2c(-c3ccccc3)cc(N3CCOCC3)nc2c1	i	-1	0	0	6	-13	-1	.
COc1ccc(CCN(Cc2cccs2)S(=O)(=O)c2ccc(-n3cnnn3)c(OC)c2)cc1OC	i	-14	4	-2	-3	-2	-16	29
C/C(=N\NC(=O)C1CC1)c1cccs1	i	-13	0	5	-2	-8	4	-89
CCn1ccnc1CNC(=O)C1CCC(=O)N(Cc2cccc(C(F)(F)F)c2)C1 (configuration not stated)	i	-18	5	6	-1	-11	-12	6
O=C1CC(c2ccccc2Cl)CC(O)=C1C=NCCCO (configuration not stated)	i	-9	-3	1	1	-7	3	-4
Cc1ccc(OCc2cc(C(=O)N3CCC(C(O)C(C)C)CC3)no2)cc1C (configuration not stated)	i	-3	5	0	-1	-1	-3	-8
Cc1ccc(NS(=O)(=O)c2cc([N+](=O)[O-])ccc2NNC(=S)Nc2cccc(Cl)c2)c(C)c1	i	.	3	4	8	100*	-5	.
O=C(NCc1ccco1)/C(=C\c1ccccc1)NC(=O)c1ccccc1	i	.	-1	-2	-4	3	7	-7
CCOc1ccc2nc(SCC(=O)N(C)C3CCS(=O)(=O)C3)[nH]c2c1 (configuration not stated)	i	-31	2	4	-4	-11	-2	?
COc1ccc2oc(=O)c(-c3nc4ccccc4o3)cc2c1	i	.	-15	5	7	-3	99	-126	eIF4H inh retest=-7;PABP FP inh retest=4
Cc1no[n+]([O-])c1COc1ccc(/C=N/n2nnnc2N)cc1	i	.	-3	-3	0	-7	-2	.
COc1ccc(-n2nnc3c(SCc4ccccc4)ncnc32)cc1	i	-14	6	0	-4	0	-8	.
COc1ccc(CN2CCN(C3CCC3)CC2CCO)cc1C (configuration not stated)	i	-23	0	-2	-9	0	5	-7
COc1ccc(NS(=O)(=O)c2cc(NC(=O)c3ccccc3)ccc2N2CCOCC2)cc1	.	1	-4	-10	.	29	.	-4
CCC(NS(=O)(=O)c1ccc(OC)cc1)C(=O)O (configuration not stated)	i	-19	1	4	-2	-15	-5	-73
CCOc1ccc(-c2c(C(=O)N/N=C(\C)c3ccncc3)nnn2-c2nonc2N)cc1	i	-9	-2	-1	-2	0	-9	0
NC1=NC(c2ccc(Cl)cc2)n2c(nc3ccccc32)N1 (configuration not stated)	i	2	1	1	-5	-6	-3	.
O=C(O)c1cccc(CN2C(=O)S/C(=C/c3ccccc3[N+](=O)[O-])C2=O)c1	i	.	-7	-5	16	29	-8	22
O=c1cc(O)c2sc(Nc3cccc(C(F)(F)F)c3)nc2[nH]1	i	.	2	3	1	3	-3	-6
Cc1cccc(NC(=O)Nc2cnccn2)c1C	i	-2	-1	1	-12	0	7	15
O=C(OCC(=O)N1CCCC1)c1cccc(Br)c1	i	-14	1	3	6	-10	-4	-22
CN(Cc1cccc(C(F)(F)F)c1)C(=O)[C@H]1O[C@@H](n2ccc(N)nc2=O)[C@H](O)[C@@H]1O	.	-17	1	0	.	.	.	-8
CCOC(=O)c1[nH]c(C)c(C(=O)OCCOc2cccc(C)c2)c1C	i	.	-2	-8	0	8	-5	-5
